# SARS PLP yeast: inhibitors of SARS-CoV papain-like protease in yeast; Potency, µM (highest dose often 32.9 µM), without a hit: top-dose activity, positive = growth rescue; 330,000 compounds, 0.19% hits; S. cerevisiae expressing SARS-CoV PLpro, growth rescue; control for the full effect not named in the record; active means well fitted rising curve with a large enough effect; inconclusive means small, poorly fitted or top-dose-only effect; inactive means no such curve, though single readings can be large or run the other way; note: 0% is about no effect; nearly all actives have a fitted effect of over 55% in size; growth read by luminescence after 48 h
# 2A StopGo: lowers the luciferase signal of an FMDV 2A StopGo reporter; human cells with a luciferase reporter of 2A StopGo recoding; control for the full effect not named in the record; Potency, µM (highest dose often 57.9 µM), inactives show at the top dose signal change, negative = less light; 410,000 compounds, 1.2% hits; AID 1159524; active = well fitted falling curve with a large enough effect; inconclusive = small, poorly fitted or top-dose-only effect; inactive = no such curve, though single readings can be large or run the other way; tested in HEK293T cells; note: % is set by controls: 0 for no effect and ±100 for the full control effect; nearly all actives have a fitted effect of over 45% in size; luciferase light after 4 h
# RE007 growth inh: less growth of the S. pombe RE007 Vpr strain | S. pombe RE007 Vpr strain, BacTiter-Glo ATP luminescence, 24 h; control for the full effect not named in the record | Potency, µM (top dose mostly 92.2 µM), for the others: at the highest dose activity change, negative = less growth | 360,000 compounds, 0.21% hits | AID 651644; active = well fitted falling curve with a large enough effect; inconclusive = small, poorly fitted or top-dose-only effect; inactive = no such curve, though single readings can be large or run the other way;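 note: % is set by controls: 0 for no effect and ±100 for the full control effect; nearly all actives have a fitted effect of over 50% in size; the assay follows cell death caused by Vpr and the record does not say whether a fall means rescue or toxicity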
#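 Fission yeast RE007 carrying one integrated HIV-1 vpr copy, seeded at OD 0.01 in PMG+AL medium with 23 nL pinned compound. Grown 24 h at 30 degrees; viability read by BacTiter-Glo luminescence after 5 min.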
# NS1 function inh: blocks influenza NS1 protein function; S. cerevisiae slowed by influenza A NS1, growth recovery by OD600; AID 2326; 270,000 compounds, 0.4% hits; Potency, µM (highest dose often 46.1 µM), for the others: top-dose activity, positive = more growth; active means well fitted rising curve with a large enough effect; inconclusive means small, poorly fitted or top-dose-only effect; inactive means no such curve, though single readings can be large or run the other way; note: nearly all actives have a fitted effect of over 50% in size
#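 OD600 was taken as the measure of yeast growth restored by compound in an NS1-expressing S. cerevisiae strain. Cells had been washed out of glucose medium and diluted 1:100 into galactose -URA medium, pH 6.0.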
# Cruzain inh noDet: blocks cruzain activity in detergent-free assay; P25779; purified cruzain, Z-FR-AMC fluorescence, no detergent; Potency, µM, for the others: max response, negative = inhibition, actives largely listed as inhibitors; 200,000 compounds, 2.3% hits; AID 1476;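 note: plate controls were enzyme without inhibitor for no effect and buffer without enzyme for full effect; nearly all actives have a fitted effect of over 40% in size; top concentration of the series not given in the record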
# Target sequence (P25779 123-467 limits assumed): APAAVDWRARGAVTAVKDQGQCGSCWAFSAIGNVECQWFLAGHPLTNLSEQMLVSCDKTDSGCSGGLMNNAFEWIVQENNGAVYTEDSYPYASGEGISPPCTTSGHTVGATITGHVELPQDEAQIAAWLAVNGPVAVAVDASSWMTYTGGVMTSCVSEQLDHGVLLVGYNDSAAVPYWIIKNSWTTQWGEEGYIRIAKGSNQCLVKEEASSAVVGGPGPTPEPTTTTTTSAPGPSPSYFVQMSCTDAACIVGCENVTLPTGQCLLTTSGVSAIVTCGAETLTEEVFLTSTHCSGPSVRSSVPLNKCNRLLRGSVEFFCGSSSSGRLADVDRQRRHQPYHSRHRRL
#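 Purified cruzain at 1.5 nM, pre-incubated 15 min with compound at room temperature in 100 mM sodium acetate pH 5.5, 5 mM DTT, 0.00005% Triton X-100. Reaction started with 2 uM Z-FR-AMC; AMC fluorescence increase over 60 s gives rate.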
# Cruzain inh Det: cruzain (T. cruzi) inhibition with detergent | Potency, µM, inactives show max response, negative = inhibition, hits mostly inhibitors | purified cruzain, Z-FR-AMC fluorescence, 0.01% Triton | 200,000 compounds, 0.43% hits;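 note: plate controls were neutral wells for no effect and buffer without enzyme for full effect; nearly all actives have a fitted effect of over 40% in size; top concentration of the series not given in the record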
#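 15 min RT preincubation of 1.5 nM cruzain with compound, then 2 uM Z-FR-AMC added; kinetic AMC fluorescence, 60 s delta. Triton X-100 0.01%, pH 5.5.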
# MARV entry inh: blocks Marburg virus binding to or entry into cells. Potency, µM (series often up to 37.8 µM), for inactives: at the top dose activity change, negative = inhibition, most hits filed as inhibitors. 300,000 compounds, 1.8% hits. Marburg virus pseudotyped entry inhibition, cell reporter; control for the full effect not named in the record; about a third of the inactives were read at about 46 µM; active = well fitted inhibition curve with a large enough effect; inconclusive = small, poorly fitted or top-dose-only effect, or effect the other way; inactive = flat fitted curve, though single readings scatter; tested in HEK293 cells; about a fifth of its hits are not listed in these tables; note: % is set by controls: 0 for no effect and ±100 for the full control effect; luciferase read-out
# Lassa entry inh: blocks Lassa virus binding to or entry into cells; Lassa virus pseudotype entry inhibition, cell reporter; control for the full effect not named in the record; Potency, µM (top dose mostly 37.9 µM), for the others: top-dose activity change, negative = inhibition, actives largely listed as inhibitors; 300,000 compounds, 1.2% hits; active means well fitted inhibition curve with a large enough effect; inconclusive means small, poorly fitted or top-dose-only effect, or effect the other way; inactive means flat fitted curve, though single readings scatter; tested in HEK293 cells; note: % is set by controls: 0 for no effect and ±100 for the full control effect; nearly all actives have a fitted effect of over 50% in size; luciferase read-out
# * hit, by the source's call; u = inconclusive; x = no result given; [ ] = dose if it differs, or a comment. Unless noted, calls come from the whole dose curve; as a rule, active = well fitted curve in the direction sought with a large enough effect; inconclusive = small, poorly fitted or top-dose-only effect, or another doubt; inactive = no such curve, though single readings can be large; an effect the other way counts as inactive or inconclusive. Potency is the fitted concentration of half-maximal effect.
SMILES,SARS PLP yeast,2A StopGo,RE007 growth inh,NS1 function inh,Cruzain inh noDet,Cruzain inh Det,MARV entry inh,Lassa entry inh
CCOC(=O)NC1(C(F)(F)F)NC(=O)N(C2CCCCC2)C1=O (stereo unspecified),5.4%,x,7.2%,1.9%,4.0%,-0.4%,6.8%,2.9%
CN1CCN(C(=O)c2ccc(N3CCCC3=O)cc2)CC1,5.3%,-21.7%,12.9%,1.5%,-0.1%,1.1%,-2.7%,-4.0%
COc1ccc(CC2(CO)CCN(Cc3cccc(OC)c3OC)CC2)cc1,-0.8%,-0.8%,1.9%,-2.3%,x,x,u,2.0%[46.1 µM]
O=C(O)C1CCC(=O)N(C2CCCCC2)C1c1ccccc1Cl (stereo unspecified),1.5%,-26.7%,-4.5%,1.9%,x,x,x,x
COc1ccc(OC)c(CCNC(=O)CCc2nnc3ccc(N4CCCCC4)nn23)c1,5.2%,-0.2%,9.2%,-11.4%,x,x,x,x
COc1c(O)cnn(-c2ccccc2)c1=O,-0.1%,-2.6%,21.5%,3.5%,x,x,x,x
CCOc1ccc(N(CC(=O)NC2CCCC2)C(=O)c2ccc(C)s2)cc1,-4.9%,5.0%,2.6%,-19.3%,x,x,u,-19.4%
NC(=O)C1CCN(C(=O)c2cc(-c3ccccc3Cl)nc3ccccc23)CC1,8.6%,1.6%,2.9%,x,x,x,0.6%,3.2%
COc1cc(NS(=O)(=O)c2c(C)nc3sc(C)c(C)n3c2=O)cc(OC)c1,x,10.7%,x,x,-3.2%,-0.6%,x,7.7%[46.1 µM]
CCOC(=O)c1ccc([N+](=O)[O-])c(CS(=O)(=O)c2ccc(Cl)cc2)c1,-3.4%,-16.3%,3.8%,5.3%,x,x,x,x
Cc1cccc(NC(=O)CSc2nnc(C)c(C)n2)c1,2.2%,3.0%,24.7%,8.2%,x,x,-10.7%[46.1 µM],x
Cn1cc(CN2CCC(n3nccc3NC(=O)c3ccccc3Cl)CC2)cn1,-5.6%,0.0%,-22.6%,0.1%,x,x,-0.9%,5.9%
COc1ccccc1CCNC(=O)C(=O)NCC1CCCN1S(=O)(=O)c1ccccc1 (stereo unspecified),1.2%,u,13.7%,x,x,x,u,u
COc1ccccc1-c1nn(CCC(=O)Nc2ccc(C)cc2)c2nc(C)cc(C)c12,x,-25.6%,x,x,u,-7.8%,0.5%[46.1 µM],-7.8%[46.1 µM]
CCCCC(=O)NC(=S)Nc1ccc(NC(=O)C(C)C)c(OC)c1,-0.6%,6.3%,1.1%,-1.5%,x,x,3.3%,-4.8%
Cc1ccc(OCC(=O)Oc2ccc(C)c(C)c2)cc1,-7.9%,-17.0%,8.2%,1.4%,x,x,-2.7%,8.8%
C1CCc2c(nc3nnnn3c2NCC2CC2)C1,1.9%,-7.2%,0.3%,0.5%,x,x,x,x
COc1ccc(Cc2nnc(SCC(=O)Nc3ncc(C)s3)o2)cc1,8.3%,-9.6%,7.3%,10.1%,7.2%,0.4%,29.1%,-4.6%
CCOc1ccccc1NC(=O)Cn1c(=O)n(Cc2ccccc2)c(=O)c2c1c1cc(C)ccc1n2C,x,-0.2%,x,x,-5.6%,-1.1%,x,26.3%[46.1 µM]
CC1CCCN(CCOCCOc2ccccc2-c2ccccc2)C1 (stereo unspecified),-8.1%,-24.3%,x,-13.1%,-8.7%,-0.6%,11.2µM*,u

# Part of the list above in order of molar mass, highest first:
SMILES,SARS PLP yeast,2A StopGo,RE007 growth inh,NS1 function inh,Cruzain inh noDet,Cruzain inh Det,MARV entry inh,Lassa entry inh
Cn1cc(CN2CCC(n3nccc3NC(=O)c3ccccc3Cl)CC2)cn1,-5.6%,0.0%,-22.6%,0.1%,x,x,-0.9%,5.9%
NC(=O)C1CCN(C(=O)c2cc(-c3ccccc3Cl)nc3ccccc23)CC1,8.6%,1.6%,2.9%,x,x,x,0.6%,3.2%
CCOC(=O)NC1(C(F)(F)F)NC(=O)N(C2CCCCC2)C1=O (stereo unspecified),5.4%,x,7.2%,1.9%,4.0%,-0.4%,6.8%,2.9%

# Full records as entered above.
# Results for Cc1ccc(OCC(=O)Oc2ccc(C)c(C)c2)cc1 = SARS PLP yeast = -7.9%; 2A StopGo = -17.0%; RE007 growth inh = 8.2%; NS1 function inh = 1.4%; Cruzain inh noDet = x; Cruzain inh Det = x; MARV entry inh = -2.7%; Lassa entry inh = 8.8%
# Results for COc1ccc(Cc2nnc(SCC(=O)Nc3ncc(C)s3)o2)cc1 = SARS PLP yeast = 8.3%; 2A StopGo = -9.6%; RE007 growth inh = 7.3%; NS1 function inh = 10.1%; Cruzain inh noDet = 7.2%; Cruzain inh Det = 0.4%; MARV entry inh = 29.1%; Lassa entry inh = -4.6%

# Next results follow.
SMILES,SARS PLP yeast,2A StopGo,RE007 growth inh,NS1 function inh,Cruzain inh noDet,Cruzain inh Det,MARV entry inh,Lassa entry inh
Cn1nccc1C(=O)NC1CCCc2c1cnn2-c1ccccc1F (stereo unspecified),u,u,10.5%,-0.8%,x,x,x,x
COc1cc(NC(=O)c2cc(Cl)ccc2Cl)ccc1-c1cc2ccccc2oc1=O,2.6%,63.6%[activator],8.4%,-6.1%,20µM*,-14.9%,-17.2%,-16.7%[14.3 µM]
Cc1cc(C(F)(F)F)c2sc(N)nc2n1,-1.3%,-23.5%,0.6%,-3.6%,-0.1%,-7.1%,0.1%,-1.5%
COc1ccc2c(c1)sc(N)[n+]2Cc1cc(C)cc2cccnc12,-4.8%,0.0%,-16.8%,-11.5%,-2.7%,-11.6%,u,u
O=C(NC1CCCC1)C(c1ccccc1)N(C(=O)c1csnn1)C1CCCC1 (stereo unspecified),-2.2%,-8.2%,-1.1%,2.4%,x,x,3.2%[46.1 µM],x
Cc1cc(C(=O)NC(Cc2ccccc2)C(=O)O)c(C)o1 (stereo unspecified),-0.5%,-13.8%,1.8%,15.2%,x,x,-0.5%,-12.5%
CC(=O)Nc1ccc(C(=O)CSc2nnc(-c3ccccc3)n2-c2ccccc2)cc1,x,-15.2%,x,x,-9.3%,0.8%,12.3%[46.1 µM],-18.5%[46.1 µM]
CCCN(C(=O)CSc1nnnn1C)c1c(N)n(Cc2ccccc2)c(=O)[nH]c1=O,-0.2%,-1.4%,1.8%,x,x,x,4.0%,-16.4%
CC1(C)C/C(=N\O)C(C(O)c2cccc([N+](=O)[O-])c2)C(C)(C)N1 (stereo unspecified),-0.7%,2.2%,u,0.9%,x,x,8.3%[46.1 µM],4.3%
Cc1cccc(C(C(=O)NC2CCCC2)N(C(=O)c2csnn2)C2CC2)c1 (stereo unspecified),1.2%,-5.3%,-4.6%,-4.5%,x,x,-11.8%[46.1 µM],-18.3%[46.1 µM]
O=c1c2ccccc2nnn1CSc1nc2sc3c(c2c(=O)n1CC1CCCO1)CCC3 (stereo unspecified),5.1%,x,-1.3%,5.0%,-2.2%,-0.8%,u,u
COc1ccc(S(=O)(=O)N2CCN(CC(=O)Nc3cc(Cl)ccc3Cl)CC2)cc1,0.3%,-10.2%,-12.9%,x,x,x,u,-3.3%
O=c1[nH]c(=S)n(-c2ccc(Br)cc2)c2ncccc12,x,-21.7%,-7.8%,x,x,x,1.5%[46.1 µM],18.0%[46.1 µM]
Cc1ccc(NC(=O)c2ccc(Cl)c(S(=O)(=O)Nc3c(C)n(C)n(-c4ccccc4)c3=O)c2)cc1Cl,1.3%,-13.0%,0.5%,x,x,x,u,u
COC(=O)c1nc2n(n1)C(c1cc(OC)ccc1OC)C(C(=O)Nc1ccc(C)cc1C)=C(C)N2 (stereo unspecified),x,4.8%,x,x,-8.2%,2.0%,1.2%[46.1 µM],u
COc1cccc(NC(=O)CCC2CCN(C(=O)c3cncs3)CC2)c1,51.2%,-28.0%,3.2%,u,x,x,u,-0.9%
O=[N+]([O-])c1ccc(N2CCCC2)c(F)c1Br,-13.3%,-7.6%,-9.2%,-1.4%,-13.7%,-5.4%,-1.3%[46.1 µM],u
Cc1ccc(CCNC(=O)c2ccc3c(c2)nc2n3CCC(C)C2)cc1 (stereo unspecified),x,-9.8%,x,x,-1.2%,4.9%,x,u
COc1ccccc1CNC(=O)CCn1c(=O)[nH]c2ccsc2c1=O,-7.5%,14.3%,19.5%,2.0%,-3.8%,2.0%,12.6%,2.2%
Cc1cc(C)c2cc(C(=O)Nc3ccc4c(c3)OCO4)[nH]c2c1,1.5%,8.7%,2.3%,1.5%,x,x,-17.4%[46.1 µM],-5.3%[46.1 µM]
CC1CC(=O)Nc2cc([N+](=O)[O-])ccc2N1 (stereo unspecified),-0.4%,-6.3%,2.3%,0.8%,x,x,x,x
CC(C)CNC(=O)CC(=O)NN=C1CCCC1,-6.7%,0.0%,x,-3.1%,-10.9%,-0.2%,u,4.1%
Cc1ccc(Nc2cc(C)nc3nc(C)nn23)cc1,u,-6.3%,6.6%,u,1.1%,0.9%,-24.9%,-2.9%
O=C(c1cc(S(=O)(=O)N2CCOCC2)c(Cl)cc1Cl)N1CCCC1,-3.7%,0.9%,-14.9%,x,x,x,0.9%,15.2%
CCC(C)(C)n1nnnc1C(c1cccc(C#N)c1)N1CCN(c2cccc(C)c2C)CC1 (stereo unspecified),0.8%,x,6.7%,u,-6.1%,-0.9%,u,u
COc1ccc(Br)cc1CN1CCN(C(=O)c2ccco2)CC1,2.1%,-8.9%,56.9%,-0.5%,x,x,-24.9%,-14.3%
O=C(NCCOc1nc(N2CCOCC2)nc(N2CCOCC2)n1)Nc1ccccc1,1.9%,0.0%,-10.6%,8.9%,11.0%,-1.5%,15.8%,u
COc1ccccc1NC(=O)CSc1ncc2c(n1)-c1cc(Cl)ccc1N(C)S2(=O)=O,x,-23.7%,x,x,u,1.4%,x,-7.0%[46.1 µM]
O=C1C(=O)N(CCCn2ccnc2)C(c2cccnc2)/C1=C(/O)c1ccc(F)cc1 (stereo unspecified),2.5%,-2.2%,-17.2%,9.4%,-17.7%,-1.9%,-18.8%,1.5%
Cc1cc(C)n(-c2nc3ccccc3nc2N2CCCC2)n1,-9.6%,-17.4%,5.2%,-6.6%,-0.9%,-1.6%,u,24.1%

# Source: PubChem (National Center for Advancing Translational Sciences (NCATS))
